HCMV UL50-53 inh = inhibitors of HCMV UL50-UL53 nuclear egress complex interaction; HTRF UL50-UL53 interaction, normalized percent inhibition; inhibition, % (test concentration not listed); hit rate 0.15% among 190,000; AID 1918969;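 active = both replicates at 50% or more, plus weaker picks with an unusually low signal ratio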;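 also: stock transfer was 100 nL into about 20 µL; 0% = negative control wells and 100% = wells with untagged competitor protein; inactives centre near -12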
GIV-Gai inh = inhibitors of GIV GBA-motif binding to rat Galpha-i3; hit rate 0.42% among 210,000; Galpha-i3/FITC-GIV peptide fluorescence polarization, 90 min; active compounds read low; scaled: aluminum fluoride 0%, vehicle 100%; percent of control (FP), % (test concentration not listed);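 active = replicate mean at 85% of control or lower, very high polarization wells dropped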;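 also: lower values mean more displacement of the GIV peptide from Galpha-i3; wells of about 15 µL received 100 nL stock; the first replicate is given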
Target sequence (P08753 whole entry, looked up): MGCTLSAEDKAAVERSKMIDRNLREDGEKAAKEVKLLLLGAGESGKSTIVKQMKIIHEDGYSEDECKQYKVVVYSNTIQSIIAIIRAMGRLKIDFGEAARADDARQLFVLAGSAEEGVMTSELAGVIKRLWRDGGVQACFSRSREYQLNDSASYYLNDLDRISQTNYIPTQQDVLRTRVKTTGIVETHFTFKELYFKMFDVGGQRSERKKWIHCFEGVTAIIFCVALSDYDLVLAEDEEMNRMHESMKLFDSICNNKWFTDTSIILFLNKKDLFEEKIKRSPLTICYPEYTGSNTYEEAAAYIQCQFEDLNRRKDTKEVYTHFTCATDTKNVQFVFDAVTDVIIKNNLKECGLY
Sa growth inh = blocks Staphylococcus aureus growth | S. aureus RN4220 growth, OD600, 20 h, 42 °C; active compounds read low | AID 720641 | hit rate 0.53% among 170,000 | relative growth, % (concentration not given with the values);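 active = growth at 42 °C up to 50% and 20 or more points under that at 30 °C, or under 10% at both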;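 also: 300 nL library stock went into each well; scaled to the means of positive and negative controls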
Sa growth inh second temp = recorded beside Sa growth inh, whose call it bears; relative growth, %; measured here: growth at 30 °C;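 optical density after 20 h as mean of two plates; 100% = untreated growth and lower means inhibition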
* hit, by the source's call; . = no result given; & = joins results of further samples.

Key to letters – A = HCMV UL50-53 inh; B = GIV-Gai inh; C = Sa growth inh; D = Sa growth inh second temp
Cc1cc(C)n(CCCNC(=O)c2ccc(S(=O)(=O)N3CCCCCC3)cc2)n1
  A: -12; B: .; C: 63; D: 90
COC(=O)c1sccc1Oc1ccc(C(F)(F)F)cc1NC(=O)c1ccc(Cl)cc1
  A: -24; B: 100; C: 86; D: 89
Cc1ccc(C)n1-c1cccc(C(F)(F)F)c1
  A: -3; B: .; C: 111; D: 92
Cc1ccc(-n2ncc3c(NCC(C)C)ncnc32)c(C)c1
  A: .; B: 95; C: 96; D: 94
CCN1CCCC1CNS(=O)(=O)c1ccc(-c2cc(C(F)(F)F)no2)s1 (stereo unspecified)
  A: -12; B: 104; C: 88; D: 89
O=C(c1cccs1)n1cc2c(n1)-c1cc(Cl)ccc1SC2
  A: 0; B: 102; C: 83; D: 86
Cc1ccc(C(C(=O)Nc2ccc3c(c2)OCCO3)N(C)C(=O)Cc2cccs2)cc1 (stereo unspecified)
  A: -2; B: 100; C: 88; D: 116
CCN1/C(=C2/SC(=S)N(N)C2=O)C=Cc2cc(C)ccc21
  A: .; B: 104; C: 106; D: 101
COc1ccc(CN(C(=O)CCN2C(=O)c3ccccc3S2(=O)=O)c2ccccc2O)cc1
  A: .; B: 104; C: 104; D: 61
COc1cc(Cl)c(C)cc1Nc1nc2ccccc2n2cnnc12
  A: -13; B: 108; C: 87; D: 105
CC(C)(C)N(Cc1ccccc1)C(=O)CSc1nnc(-c2ccccc2)o1
  A: 22; B: .; C: 117; D: 96
O=C(C[n+]1cccc(/C=N/O)c1)N1CCOCC1
  A: -33; B: 104; C: 84; D: 80
CCn1c(C)nc2cc(CO)ccc21
  A: -12; B: 99; C: 105; D: 83
N=C(N)n1nc(-c2ccccc2)cc1N
  A: -27; B: 102; C: 108; D: 69
O=C1CCC(=O)N1CCn1c2ccc(Br)cc2c2nc3ccccc3nc21
  A: -14; B: 105; C: .; D: .
Cc1nn(-c2ccccc2)c2c1C(C(F)(F)F)(C(F)(F)F)C(C#N)=C(N)O2
  A: -15; B: .; C: 76; D: 80
COc1cccc(Nc2nc3cc(C)ccc3nc2NS(=O)(=O)c2ccc(Cl)cc2)c1
  A: .; B: 103; C: 109; D: 91
O=C(C1CCCCC1)N1CC(OCc2ccc(Cl)cc2)C1
  A: -12; B: 101; C: .; D: .
O=S(=O)(Nc1ccccc1CO)c1ccc(F)cc1
  A: -30; B: .; C: 110; D: 86
O=S(=O)(NCc1csc(-c2ccccc2)n1)c1cccc(F)c1
  A: -24; B: 104; C: 108; D: 81
COC(=O)C1=C(OC(=O)CN2C(=O)c3ccccc3C2=O)c2ccccc2S(=O)(=O)N1C(C)C
  A: -18; B: 98; C: .; D: .
OCCN1CCN(CC2CC=CCC2)CC1 (stereo unspecified)
  A: 3; B: 109; C: 103; D: 111
Cc1ccc(NC(=O)CCc2c(C)nn(-c3ccc(N4CCOCC4)nn3)c2C)c(C)c1
  A: .; B: 105; C: 98; D: 91
Cc1ccc2snc(C(=O)N3CCN(S(=O)(=O)c4cccc(Cl)c4)CC3)c2c1
  A: -16; B: 101; C: .; D: .
Cc1ccc(C)c(CSc2nnc3n(C)c(=O)c4sccc4n23)c1
  A: -23; B: 96; C: .; D: .
Cc1nc2ccccc2c2c1C(=O)NC2=O
  A: -340; B: 104; C: 92; D: 85
Cc1ccc2[nH]c(=O)c3cc(C(=O)N(C)c4cccc(Cl)c4)sc3c2c1
  A: .; B: 102; C: 105; D: 95
CC1(C)CC(=O)CC(C2(O)C(=O)N(Cc3ccccc3)c3ccccc32)O1 (stereo unspecified)
  A: .; B: 102; C: 93; D: 47
Nc1c(C(=O)Nc2ccccc2Cl)c2ccccn2c1C(=O)c1ccccc1
  A: -6; B: 102; C: 110; D: 90
CS(=O)(=O)Nc1nc2ccc(NC(=O)CN3C(=O)COc4ccccc43)cc2s1
  A: -34; B: 103; C: .; D: .
CCOc1ccc(C2CC(=O)c3c([nH]c(C(=O)OC4CCCCCC4)c3C)C2)cc1 (stereo unspecified)
  A: -14; B: 108; C: 88; D: 87
COC(=O)c1cnn(-c2ccc(F)cc2F)c1C(OC)OC
  A: 0; B: 104; C: 94; D: 68
O=C(ON1C(=O)CCC1=O)c1ccc(Br)o1
  A: -8; B: 101; C: 108; D: 104
COc1ccc(N2C(=O)N(Cc3cc(=O)n4ccccc4n3)c3ccccc3S2(=O)=O)cc1OC
  A: -53; B: 102; C: .; D: .
CCc1cc(=O)[nH]c(Nc2cccc(Cl)c2)n1
  A: -3; B: 109; C: .; D: .
COC(=O)c1cc(/C=C2\C(=O)Nc3ccccc32)cn1C
  A: -27; B: 106; C: 101; D: 74
O=C(O)c1ccc(N2CCCc3ccccc32)s1
  A: -28; B: 110; C: 97; D: 80
Cc1cccc(Cn2c(-c3cccs3)nc3ccccc32)c1
  A: -16; B: 99; C: 89; D: 91
CCc1nn(CC(=O)N2CCN(c3cc(Cl)ccc3C)CC2)c(=O)c2cc3occc3n12
  A: 1; B: 111; C: 130; D: 102
NC(=O)N/N=C1\CCCc2ccccc21
  A: -17; B: .; C: 103; D: 98
Nc1nc(Nc2ccccc2F)sc1C(=O)c1ccc(Cl)cc1
  A: -14; B: 102; C: 98; D: 50
CCc1c(C)sc2c1CCN(CC(=O)Nc1ccccc1C(=O)OC)C2c1ccccc1 (stereo unspecified)
  A: 12; B: 100; C: .; D: .
COc1cccc(N2C(=O)NC(=O)/C(=C\c3ccc(OC)c(OC)c3OC)C2=O)c1
  A: 2; B: 98; C: .; D: .
OCC1CC(O)C(O)C(Oc2ccc3ccccc3c2)O1 (stereo unspecified)
  A: -13; B: 100; C: 104; D: 76
Cc1ccc(-n2ncc3c(NCc4ccco4)ncnc32)cc1
  A: -18; B: 102; C: 101; D: 92
COc1ccccc1-n1c(=O)n(C)c2c(C(N)=O)nc(-c3cccc(OC)c3OC)nc21
  A: .; B: 105; C: 101; D: 92
O=C(Nc1ccccc1OCc1cc(=O)n2ccccc2n1)c1ccccc1F
  A: .; B: 95; C: 82; D: 89
CCOc1ccc(NC(=O)COC(=O)Cn2cnnn2)cc1OCC
  A: -2; B: .; C: 88; D: 93
Cc1ccc(C(=O)N(C)c2ccccc2)cc1Cl
  A: -8; B: 101; C: 101; D: 103
CCCN(CCC)C(=O)CN1C(=O)CSc2ccc(S(=O)(=O)N3CCC(C)CC3)cc21
  A: -15&-20; B: 107&103; C: 111; D: 85
CN(C)NS(=O)(=O)C1CCS(=O)(=O)C1 (stereo unspecified)
  A: -27; B: 105; C: 85; D: 92
COC(=O)C(NC(=O)CCc1c(C)nc2c(c(C)nn2-c2ccccc2)c1C)C(C)C (stereo unspecified)
  A: -8; B: 99; C: 108; D: 87
CCOc1ccc2nc(NC(=O)c3cc4ccc5ccc(C)[nH]c5c4n3)sc2c1
  A: -6; B: 102; C: .; D: .
Cc1nc(N2CCCC2)sc1C(=O)c1oc2ccccc2c1C
  A: -15; B: .; C: 101; D: 87
Cc1cc(C)n(-c2nc3nonc3nc2Nc2ccccc2C)n1
  A: 1; B: 105; C: .; D: .
Cc1occc1-c1nnc2sc(COc3ccccc3Cl)nn12
  A: -14; B: 106; C: .; D: .
CC(C)NC(=O)C[n+]1csc2ccccc21
  A: 1; B: .; C: 57; D: 51
CCOC(=O)C(O)(c1ccc2nc(N)sc2c1)C(F)(F)F (stereo unspecified)
  A: -7; B: 105; C: 97; D: 95
COc1ccc(C2CC(c3ccc(Br)cc3)=NN2S(=O)(=O)c2ccccc2)cc1 (stereo unspecified)
  A: -3; B: 111; C: .; D: .
COc1ccc(CCNC(=O)CN2C(=O)COc3ccccc32)cc1OC
  A: .; B: 105; C: 110; D: 99

Next section:
Key to letters – A = HCMV UL50-53 inh; B = GIV-Gai inh; C = Sa growth inh; D = Sa growth inh second temp
Clc1ccc(C2=Nc3cccc4cccc(c34)N2)cc1
  A: .; B: 108; C: 117; D: 88
CCC(CC)C(=O)Nc1ccc2nc(SCc3ccccc3)sc2c1
  A: -22; B: 100; C: 95; D: 83
CCc1ccc(CNC(=O)c2cc3c(=O)n(CC)c4ccccc4c3s2)cc1
  A: -13; B: 103; C: 101; D: 95
COc1cccc(C(=O)N2CCCC(C)C2)c1 (stereo unspecified)
  A: -10; B: 101; C: 95; D: 94
O=c1[nH]c(O)c(C=NCc2cccs2)c(=O)[nH]1
  A: -12; B: 103; C: 88; D: 100
CCC(=O)N1CCc2cc(S(=O)(=O)NCCC(=O)NCc3ccc(C)cc3)ccc21
  A: -27; B: 104; C: 103; D: 95
O=C(Nc1ccccc1C(=O)N1CCOCC1)C1COc2ccccc2O1 (stereo unspecified)
  A: -4; B: 101; C: 94; D: 76
CCC(CC)C(=O)N1CCc2ccccc21
  A: -6; B: 100; C: 119; D: 98
Cc1cccc(NC(=O)c2c(O)c3ccccc3[nH]c2=O)c1
  A: -15; B: 106; C: .; D: .
CC(C)N1CC=C2C(C1)C(c1ccccc1)C(C#N)=C(N)C2(C#N)C#N (stereo unspecified)
  A: -71; B: .; C: 89; D: 75
C=CCNC(=O)/C=C/c1ccc(Cl)c(Cl)c1
  A: -44; B: 106; C: 123; D: 86
Cc1occc1C(=O)N/N=C/c1ccc(C(=O)O)cc1
  A: -1; B: 109; C: 99; D: 93
C#CCn1c(CCCCC)nc2ccccc21
  A: -2; B: 106; C: .; D: .
COC(=O)COc1ccc2c(=O)c(-c3csc(C)n3)coc2c1
  A: -31; B: 98; C: 80; D: 86
CCN(CC)c1ccc(NC(=O)c2cc(=O)c3ccccc3o2)cc1
  A: .; B: 98; C: 93; D: 91
CC(C)C(=O)N1CCCc2ccc(NS(=O)(=O)CCc3ccccc3)cc21
  A: -24; B: 108; C: .; D: .
CCN(CC)C(=O)Cn1cnc2sc(C(=O)N3CCN(c4ccc([N+](=O)[O-])cc4)CC3)c(C)c2c1=O
  A: -37; B: 110; C: .; D: .
Cc1cc(=O)n2nc(N3CCC(C(=O)NC(C)C)CC3)sc2n1
  A: -4; B: 103; C: 75; D: 88
CC(=O)Nc1ccccc1OC(=O)N1CCOCC1
  A: -38; B: 99; C: 107; D: 99
COc1cccc(N2C(=O)CN=C2Nc2nc(C)cc(C)n2)c1
  A: 2; B: .; C: 99; D: 94
COc1ccc2oc(=O)c(C(=O)NCCc3c(C)[nH]c4ccc(C)cc34)cc2c1
  A: -19; B: 103; C: 100; D: 79
CCN1CCc2nc3ccccc3c(C(=O)Nc3ccc(F)cc3)c2C1
  A: -16; B: .; C: 95; D: 86
Cc1cc(OCC[N+]2(C)CCCCC2)nc2ccccc12
  A: .; B: 104; C: 109; D: 95
CCc1ccc(NC(=O)CSc2ccc(-c3sc(-c4ccccc4)nc3C)nn2)cc1
  A: .; B: 105; C: 89; D: 79
Cc1ccc(O)c2c1NCCC2
  A: -16; B: 99; C: 46; D: 27
Cn1c(=O)c2c(-c3ccccc3)n3c(c2n(C)c1=O)C(c1ccccc1[N+](=O)[O-])Nc1ccccc1-3 (stereo unspecified)
  A: -17; B: 101; C: 114; D: 85
O=C(c1cc(-c2ccc(F)cc2)on1)N1CCCc2ccccc21
  A: .; B: 109; C: 88; D: 86
CCOc1ccc(C2=NC(c3cccs3)=Nc3ccc(C(C)C)cc3N2)cc1
  A: 1; B: 102; C: 84; D: 85
CNC(=O)N(C1=NCC(C)(C)S1)c1ccc(F)c(Cl)c1
  A: -31; B: 99; C: 82; D: 76
CCOC(=O)c1cc(NC(=O)/C=C2/N(C)c3ccccc3C2(C)C)c(C)nc1C
  A: -17; B: .; C: 99; D: 100
COC(=O)c1cccc(CS(C)(=O)=O)c1
  A: -15; B: 95; C: 108; D: 86
Cc1ccc(CNC(=O)CCCn2c(=O)c3ccccc3n(Cc3ccccc3C)c2=O)cc1
  A: -8; B: 110; C: 111; D: 94
FC(F)(F)c1cccnc1N1CCN(c2ncnc3nc[nH]c23)CC1
  A: -13; B: 100; C: .; D: .
C=CCN1C(=O)C(Cc2ccc(OC)cc2)S/C1=N/N=C/c1ccco1 (stereo unspecified)
  A: -23; B: 94; C: 90; D: 82
Nc1nc(OC(C(F)(F)F)C(F)(F)F)nc(OC(C(F)(F)F)C(F)(F)F)n1
  A: 0; B: 96; C: 101; D: 81
Cc1ccc(NC(=O)N2CCSc3ncccc32)cc1C
  A: -4; B: 105; C: .; D: .
O=C1c2cccnc2C(=O)N1Cc1ccc(S(=O)(=O)NC2CCCC2)cc1
  A: .; B: 96; C: 86; D: 88
S=c1nc2[nH]c3cc4c(cc3c2n[nH]1)OCCO4
  A: -62; B: .; C: 91; D: 92
COCCSc1nnc(NC(=O)C2CC(=O)N(C(C)(C)C)C2)s1 (stereo unspecified)
  A: .; B: 104; C: 83; D: 77
CCOC(=O)C1=C(C)NC(SCC(=O)c2ccccc2)=C(C#N)C1CC(C)C (stereo unspecified)
  A: -30; B: 99; C: .; D: .
CC(=O)Nc1ccc(NC(=O)CNC(=O)COc2ccccc2)cc1
  A: -24; B: .; C: 81; D: 84

In another format: four of the compounds above
canonical_smiles | HCMV UL50-53 inh | GIV-Gai inh | Sa growth inh | Sa growth inh second temp
O=C(c1cccs1)n1cc2c(n1)-c1cc(Cl)ccc1SC2 | 0 | 102 | 83 | 86
Cc1ccc(C(C(=O)Nc2ccc3c(c2)OCCO3)N(C)C(=O)Cc2cccs2)cc1 (stereo unspecified) | -2 | 100 | 88 | 116
CCN1/C(=C2/SC(=S)N(N)C2=O)C=Cc2cc(C)ccc21 | . | 104 | 106 | 101
COc1ccc(CN(C(=O)CCN2C(=O)c3ccccc3S2(=O)=O)c2ccccc2O)cc1 | . | 104 | 104 | 61

Screening data: PubChem, ICCB-Longwood Screening Facility, Harvard Medical School
